NPYLR7 ag: agonists of mosquito NPYLR7 receptor, primary screen, cell-based, Aedes aegypti, calcium fluorescence, mosquito biting behavior; Aedes aegypti neuropeptide Y-like receptor 7 (NPYLR7); HEK293T NPYLR7/Galpha15, GCaMP6s calcium fluorescence; activation, % at 10 µM; hit rate 0.15% among 270,000; in the data active means activation above about 40%;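 further: 0% = vehicle and 100% = reference agonist at the receptor; some compounds past the cut are filed as inactive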
NPYLR7 ag max-min: further read-out of NPYLR7 ag, marked with its call; activation, %; measured here: Max-Min RFU normalised activation; some inactives read as strong as hits;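 span of the calcium signal over five minutes; 0% = vehicle and 100% = native peptide agonist; compound fluorescence can raise it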
* marks the source's active call; other numbers are inactive results. The list is partial. The share of hits here may be higher or lower than overall.

Sequence of screens: NPYLR7 ag, NPYLR7 ag max-min
O=C(c1cccc(F)c1)N(Cc1nccn1Cc1ccc(Cl)c(Cl)c1)C1CC1
→ 20, 28
O=C(NCCOc1ccccc1)C(=O)c1ccc(C2CCCCC2)cc1
→ -6, -14
O=C(NC1CCN(c2ccccc2C(=O)NCc2ccc(F)cc2)CC1)c1ccc(Cl)cc1
→ -10, -10
Cn1c2c(c(=O)n(C)c1=O)C(c1cccc3ccccc13)C1C(=O)CCCC1=N2 (centres undefined)
→ -4, -7
O=C(COc1ccc(Cl)c(Cl)c1)NC1CC1
→ -5, -8
CS(=O)(=O)c1ncc(CN2CCC[C@H]2C(N)=O)n1CCCc1ccccc1
→ 2, -2
CCOC(=O)c1c(NC(=O)C(=O)c2c[nH]c3ccccc23)c(-c2ccc(OC)cc2)cn1Cc1ccccc1
→ 3, 1
O=C(Cc1cccs1)N1CCC(c2cn(Cc3cccc(F)c3)c3ccccc23)CC1
→ 2, 5
Cc1ccccc1Cc1nnc(NC(=O)C(C)N2CCCC2)s1 (centres undefined)
→ 15, 1
CC(=O)C1=C(c2ccc(C)cc2)N(C(C)=O)n2c(nnc2-c2ccc(Cl)cc2)S1
→ 1, -3
CC(C)NC(=O)CN(C)C(c1ccccc1)c1nc(-c2ccccc2)no1 (centres undefined)
→ 4, 4
CCc1ccc(C(=O)N(CC(=O)N(Cc2ccccc2)Cc2ccco2)CC2CCCO2)cc1 (centres undefined)
→ -4, 9
NC(=O)c1ncc(Cl)c(Cl)c1Cl
→ 5, 4
c1cncc(CCNc2nccn3ccnc23)c1
→ -2, -2
O=C1Nc2ccccc2NC12CCN(Cc1cc3n(n1)CCNC3)CC2
→ 23, 15
CC1Cc2cc(-c3cc(COC(=O)CSc4ncccn4)no3)ccc2O1 (centres undefined)
→ 1, -1
CC(=O)Oc1c(-c2ccc(NC(=O)C3CCCC3)cc2)c(-c2ccc(F)cc2)nn1-c1ccccc1C
→ -1, 4
CCCSc1ncccc1C(=O)NCCNc1cccc2ccccc12
→ 1, -2
COc1cc(NC(=O)c2ccc3c(c2)OCO3)c(OC)cc1Cl
→ 0, -4
O=C1C(c2ccc(F)cc2)C(c2ccccc2)N(c2ncn[nH]2)C1O (centres undefined)
→ -4, -10
COc1ccc(C2=N/C(=C/C(C)=C/c3ccccc3)C(=O)O2)cc1Br
→ -8, -11
CN(Cc1cnn(-c2ccc(F)cc2)c1)Cc1nc(-c2cccc(Cl)c2)no1
→ 6, 4
CCCCOc1ccc(S(=O)(=O)n2nc(C)c(S(=O)(=O)N3CCCCC3)c2C)cc1
→ 3, 0
COc1ccc(S(=O)(=O)NCc2nnnn2-c2ccc(C)cc2)cc1
→ -5, -6
Cc1c(CN2CCC3(CC2)C(=O)NCCN3C)[nH]c2c(C)cccc12
→ 10, 2
CC1=C(C(=O)OCCOc2ccccc2)C(c2ccc3c(c2)OCO3)NC(=O)N1 (centres undefined)
→ -3, -6
COc1cccc(/C=C2N=C(/C=C/c3ccccc3)OC/2=O)c1OC
→ -1, -5
CC(Oc1ccc(C#N)cc1)C(=O)NC(CC(=O)O)c1ccc(F)cc1 (centres undefined)
→ 13, 9
Cc1nc(SCc2ncc(Cl)n2C)c(C(N)=O)c(C)c1C
→ 5, 4
O=C1OC(C23CC4CC(CC(C4)C2)C3)=NC1=Cc1ccc2c(c1)OCCO2
→ 1, -2

In a second layout: entries from further up.
structure: CCCCOc1ccc(S(=O)(=O)n2nc(C)c(S(=O)(=O)N3CCCCC3)c2C)cc1
  NPYLR7 ag: 3
  NPYLR7 ag max-min: 0
structure: COc1ccc(S(=O)(=O)NCc2nnnn2-c2ccc(C)cc2)cc1
  NPYLR7 ag: -5
  NPYLR7 ag max-min: -6

Next section:
Sequence of screens: NPYLR7 ag, NPYLR7 ag max-min
COc1ccc(-n2c(=O)c3c4c(sc3n3cnnc23)CC(C)CC4)cc1 (centres undefined)
→ -4, -5
O=C1CN(c2ccccc2)C(=O)N1Cc1ccc(F)cc1
→ -2, -3
CCOc1ccc2nc(N=Cc3nc(-c4cc(Cl)ccc4OC)oc3O)sc2c1
→ -2, 1
COc1ccc(-c2nc3ncc4c(=O)n(CC5CCCO5)ccc4n3n2)cc1 (centres undefined)
→ 4, 5
Cc1ccc(C(=O)NNC(=S)NC(C)(C)C)cc1
→ -1, -6
Cc1c(C)n2c3c(=O)n(C)c(=O)n(C)c3nc2n1CCN1CCC(Cc2ccccc2)CC1
→ -1, 6
C=CCCOC(=O)N1CCC(=O)N(CCOC)C[C@H]2COc3cc(OC)ccc3[C@H]21
→ 7, 16
COc1cccc(-n2nc(C(=O)NCc3cccnc3)c(=O)n(Cc3ccccc3)c2=O)c1
→ 7, 12
COc1ccc(CNC(=O)CCC2CCCN(C(=O)c3csc(C)n3)C2)c(OC)c1 (centres undefined)
→ 12, 14
CCC(C)C(=O)N(CCCOC)CC(=O)NCC(=O)Nc1ccc(C)cc1 (centres undefined)
→ -3, 7
CCc1nn2c(NCCN(C)C)cc(C)nc2c1-c1ccccc1
→ 3, 8
Cc1cn2c3c(=O)n(CC(=O)OCc4ccccc4)c(=O)n(C)c3nc2n1C
→ 2, -4
COc1cccc2cc(-c3cc(=O)oc4cc(C)c(OC(=O)N5CCOCC5)cc34)oc12
→ -3, -5
C/C=C/c1cnc(-c2cccnc2)nc1C1CCN(C(=O)[C@H]2C[C@@H]3C=C[C@H]2C3)CC1
→ 5, 0
Fc1ccc(C2CCCN2c2nc(C3CC3)no2)cc1 (centres undefined)
→ -2, -3
COc1cc(C2C(=C(O)c3ccc(Cl)cc3)C(=O)C(=O)N2Cc2cccnc2)cc(OC)c1OC (centres undefined)
→ 4, 2
COc1ccc(S(=O)(=O)Oc2ccc(CN(Cc3ccco3)C(=O)CC(C)(C)C)cc2)cc1
→ -2, 9
COc1cccc(C(=O)Nn2cnc3c(cnn3-c3ccc(C)cc3)c2=O)c1
→ 2, -3
Cc1ccsc1[C@@H]1CCN(C(=O)CCN2Cc3ccccc3C2=O)C[C@H]1O
→ -2, -1
CN(C1CCN(Cc2ccccc2)CC1)[C@@H]1CS(=O)(=O)C[C@H]1O
→ 5, 2
Cc1ccc(NC(=O)c2csc(CSc3nnc(C)n3-c3ccccc3C)n2)cc1C
→ 21, 21
O=C1NC(=S)N/C1=C\c1ccc(Cl)cc1Cl
→ -4, -7
CN1c2ccccc2-c2nc3ccccc3n2C1c1ccccn1 (centres undefined)
→ 4, 2
O=C(CCc1nnc(-c2ccc3c(c2)OCO3)o1)NC1Cc2ccccc2C1
→ -1, -7
Cc1nonc1CN(C)Cc1ccc(C(=O)Nc2c(C)nn(C)c2C)cc1
→ 6, -7
CO[C@H](c1ccccc1)c1nc(CCc2ccccc2)nn1-c1ccccn1
→ 0, 0
CS(=O)(=O)N1CCN(S(=O)(=O)CCNC(=O)C2c3ccccc3Oc3ccccc32)CC1
→ 7, 2
CNC(=O)c1ccc(-c2cnc3ncc(Cc4ccc5ncccc5c4)n3n2)cc1F
→ -2, -3
CCc1cc2c(c(CC)n1)CCC(=O)N2Cc1ccc(-c2ccccc2-c2nn[nH]n2)cc1
→ -17, -26
COc1ccc(S(=O)(=O)Oc2ccccc2CN(CC2CCCO2)C(=O)NC(C)C)cc1 (centres undefined)
→ -12, -8
N[C@H](CCC(=O)NCS(=O)(=O)O)C(=O)O
→ -3, -17
CNC(=S)NCc1ccc2c(c1)cc(C)n2C
→ 7, 10
Cc1cc(C)n2cc(CSc3nc4nc(-c5cccs5)cc(C(F)(F)F)c4c(=O)[nH]3)nc2n1
→ -5, -14
CC(=O)Nc1ccc(Oc2ccc(C#N)cn2)cc1
→ -1, -3
C=CCN(Cc1csc(COc2c(OC)cccc2OC)n1)C(=O)c1ccc(Cl)cc1
→ 10, 26
CC(=O)c1ccc2c(c1)N(Cc1ccc3ccccc3c1)C(=O)C(C)S2 (centres undefined)
→ 6, 5
CCCCOc1ccc(C(=O)NCc2nnc(SCC(=O)Nc3ccccc3C(F)(F)F)n2-c2ccccc2)cc1
→ -7, 4
CC1=CC2C(C(C)C)CCC(C)(O)C2CC1 (centres undefined)
→ -4, -12
CSc1ncc(CNCc2cccs2)c(N2CCN(c3ccccc3F)CC2)n1
→ 6, 6
O=c1c2ccccc2c2nc3c(c(-c4cccnc4)c12)c(=O)c1ccccc13
→ -20, -26
CCNC(=O)Cn1ccc(NC(=O)N(C)C2CCCCCCC2)n1
→ 3, 0
COc1ccc2oc(=O)c(-c3csc(NC(=O)c4ccccc4)n3)cc2c1
→ 17, 6
CC1CCCN(c2nc3c(c(=O)[nH]c(=O)n3C)n2Cc2ccccc2F)C1 (centres undefined)
→ 3, 0
S=c1[nH]ccn1-c1ccc(Br)cc1
→ 0, -5
CCc1c(C)sc2c1c(=O)[nH]c1c(-c3ccccc3)c(O)cn12
→ -12, -9
OCC1(CC2CCCCO2)CCN(c2nnnn2-c2ccccc2)CC1 (centres undefined)
→ -5, -9
CC(C(=O)NC1CCCC1)N(C)CC(=O)Nc1ccc(Cl)c(C(F)(F)F)c1 (centres undefined)
→ 2, 1
Cn1ncc(Br)c1C(=O)Nc1nccs1
→ 0, 1
COC(=O)c1ccsc1-c1sccc1C(=O)OC
→ 1, 2
CCOC(=O)c1ccc2c(c1)nc(SCc1ccc(OC)c(C(F)(F)F)c1)n2Cc1cccc(F)c1
→ 7, 1

Entries of single compounds, looked up by structure. Order of screens: NPYLR7 ag, NPYLR7 ag max-min
Profile of COc1ccc2oc(=O)c(-c3csc(NC(=O)c4ccccc4)n3)cc2c1 = 17, 6
Profile of Cn1ncc(Br)c1C(=O)Nc1nccs1 = 0, 1
Profile of CC(C(=O)NC1CCCC1)N(C)CC(=O)Nc1ccc(Cl)c(C(F)(F)F)c1 (centres undefined) = 2, 1

Next structures
Sequence of screens: NPYLR7 ag, NPYLR7 ag max-min
Cc1ccccc1Oc1ncccc1CNC(=O)c1cnn2ccn(C)c12
→ -2, -3
COc1cc(CN2CCn3nc(C(=O)NCc4ccc5c(c4)OCO5)cc3C2=O)cc(OC)c1
→ 14, 2
COCCn1c(C)cn2c3c(=O)n(CCC(C)C)c(=O)n(C)c3nc12
→ -1, -2
Cc1ccc(S(=O)(=O)n2nc(C)c(S(=O)(=O)N3CCCCC3)c2C)cc1C
→ 6, 4
CCCC(=O)OCC(O)CN(Cc1ccc(F)cc1)Cc1ccsc1 (centres undefined)
→ -1, 7
O=C(O)CCCN(c1ccccc1C(=O)O)S(=O)(=O)/C=C/c1ccccc1
→ -4, -4
COc1ccc(Cl)cc1N1CCN(C(=O)c2cccc(Br)c2)C(C)C1=O (centres undefined)
→ -3, 8
COc1ccccc1/C=C1\SC(=S)N(C(Cc2ccccc2)C(=O)O)C1=O (centres undefined)
→ 7, 5
CN1CCN(N=C2C(=O)Nc3ccc(Br)cc32)CC1
→ -7, -11
COc1ccc(C2CC(C(F)(F)F)n3ncc(C(N)=O)c3N2)cc1 (centres undefined)
→ 4, 0
Cc1cc2c(=O)n(C)c(SCC(=O)Nc3ccc4c(c3)OCCO4)nc2s1
→ -6, -6
CN(C)c1ncc(CNC2CCCc3nc(-c4cccnc4)ncc32)s1 (centres undefined)
→ 19, 9
O=c1[nH]c2ccc(S(=O)(=O)Nc3ccc4c(c3)OC3(CCCC3)O4)cc2[nH]1
→ 11, 14
COc1ccc(NC(=O)N2CCN3CCNC(=O)C3C2)cc1OC (centres undefined)
→ -2, -5
Cc1cc(C)cc(Oc2coc3cc(OCC(O)Cn4nc(C)c(C)c4C)ccc3c2=O)c1 (centres undefined)
→ -1, 2
CCCc1cnc(-c2cc(F)ccc2C)nc1
→ 11, 4
CC(Sc1n[nH]c(N)n1)c1nnc(-c2ccc(F)cc2)o1 (centres undefined)
→ -1, -2
CC(=O)Oc1c(/C=C(\C#N)C(N)=O)[nH]c2ccccc12
→ 51*, 50*
CN(CCC#N)C(=O)CSc1nnc(CCC(N)=O)n1C
→ 0, 11
CCOC(=O)CCCNC(=O)N1CCN(c2ccc(NC(=O)c3ccccc3F)cn2)CC1
→ 10, -1
Cc1c(S(=O)(=O)N2CCCC2)c(=O)n(C)c(=O)n1C
→ 4, 4
Cc1ccc2nc(-c3cc(NC(=O)c4ccc(Cl)c([N+](=O)[O-])c4)ccc3O)oc2c1
→ -19, -24
CCOc1ccc(S(=O)(=O)Cc2cccc(C(N)=O)c2)cc1
→ -2, -1
Cc1nnnn1-c1cccc(NC(=O)N2CCC(N3CCCCC3)CC2)c1
→ -5, -10
CCCc1cc(NC(C)C)n2nc3nc(C)cc(C)c3c2n1
→ 3, 5
CCC(CC)c1nnc(NC(=O)CN2C(=O)C3C4C=CC(C4)C3C2=O)s1 (centres undefined)
→ 2, 11
CCN(CC)C(=O)c1cc(NC(=O)COc2ccccc2)ccc1N1CCN(c2ccccc2OC)CC1
→ 20, 26
CCC(NCc1c(C(=O)N(C)Cc2ccccc2)nc2ccccn12)c1ccc(F)cc1 (centres undefined)
→ -5, -18

Structures listed so far containing a furan ring, fused or not, in the order listed:
Sequence of screens: NPYLR7 ag, NPYLR7 ag max-min
CCc1ccc(C(=O)N(CC(=O)N(Cc2ccccc2)Cc2ccco2)CC2CCCO2)cc1 (centres undefined)
→ -4, 9
COc1cccc2cc(-c3cc(=O)oc4cc(C)c(OC(=O)N5CCOCC5)cc34)oc12
→ -3, -5
COc1ccc(S(=O)(=O)Oc2ccc(CN(Cc3ccco3)C(=O)CC(C)(C)C)cc2)cc1
→ -2, 9
